DUX4 txn inh = blocks DUX4-driven transcriptional activation | hit rate 0.8% among 37,000 | activity change, negative = inhibition, % (no concentration beside the values) | 293T-iDUX4 ZSCAN4-Gaussia luciferase reporter, 24 h; hits give low values;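 active = -10% or lower and over 25 points stronger than a control reporter; inconclusive = -10% or lower with a smaller gap; inactive = above -10%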;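 also: 0% = median of neutral control wells and -100% = median of positive control wells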
DUX4 txn inh difference = further read-out of DUX4 txn inh, marked with its call; Gaussia minus Italica difference, %; measured here: selective DUX4 reporter inhibition;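 worked out from the two reporters; negative = selective loss of the DUX4 reporter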
DUX4 txn inh control = further read-out of DUX4 txn inh, marked with its call; activity change, negative = inhibition, %; measured here: Italica tet-on control reporter;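 0 = neutral control and -100 = positive control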
* = called active by the depositor; ? = inconclusive; / = not tested or not shown. This is a subset; the hit share may differ from the screen's.

SMILES	DUX4 txn inh	DUX4 txn inh difference	DUX4 txn inh control
CCN1[C@@H]2c3ccc(-c4ccccc4F)c(=O)n3C[C@H]1[C@H](CO)[C@H]2C(=O)N1CCCCC1	?	/	/
COc1cccc(-c2ccc3c(c2)[C@H]2[C@H](CCN2S(=O)(=O)c2ccccc2OC)[C@@H](CO)N3C)c1	?	/	/
C[C@H](CO)N1C[C@H](C)[C@@H](CN(C)C(=O)Nc2cccc3ccccc23)OCCCC[C@H](C)Oc2ccc(N(C)C)cc2C1=O	0.9	-0.2	1.1
COc1ccc(S(=O)(=O)N(C)C[C@H]2OCc3cnnn3CCCC(=O)N([C@@H](C)CO)C[C@@H]2C)cc1	-3.9	-2.2	-1.7
CC(=O)N1CC(=O)N2[C@H](C1)[C@@H](c1ccc(-c3cccc(C(=O)N(C)C)c3)cc1)[C@@H]2CO	10.6	-4.3	14.8
C[C@H](CO)N1C[C@H](C)[C@H](CN(C)S(C)(=O)=O)OCc2cnnn2CCCC1=O	1.3	-1.0	2.3
CO[C@H](C(=O)N(C)C[C@@H]1OCc2ccccc2-c2c(n(C)c3ccccc23)C(=O)N([C@H](C)CO)C[C@@H]1C)c1ccccc1	?	/	/
O=C(NC[C@H]1[C@@H](c2ccccc2)[C@@H](CO)N1C(=O)C1CCC1)NC1CCCC1	-5.2	-7.2	2.0
O=C(C[C@@H]1C=C[C@@H](NC(=O)C2CCOCC2)[C@H](CO)O1)Nc1ccc(-c2ccccc2)cc1	-4.3	-5.3	1.0
C[C@@H](O)C#Cc1ccc([C@@H]2[C@H]3CN(C(=O)Nc4ccccc4)CCCCN3[C@H]2CO)cc1	?	/	/
O=C(C1CCCCC1)N1C[C@@H]2[C@H](c3ccccc31)[C@@H](CO)N2Cc1ccccc1Cl	-0.6	-1.8	1.2
COc1ccc(C#Cc2ccc([C@H]3[C@@H](CO)N4CCCCN(C)C[C@H]34)cc2)cc1	?	/	/
CC=Cc1ccc2n(c1=O)C[C@@H]1[C@@H](CO)[C@H](C(=O)NCC(F)(F)F)[C@H]2N1C(=O)CC (mixture of isomers)	5.3	8.9	-3.7
C/C=C/c1cnc2c(c1)C(=O)N([C@@H](C)CO)C[C@H](C)[C@@H](CN(C)C(=O)CCN1CCCCC1)O2	-2.8	-6.1	3.4
C/C=C/c1ccc([C@@H]2[C@H](CO)N3C(=O)CN(S(=O)(=O)c4ccccc4)C[C@@H]23)cc1	14.9	6.1	8.8
C[C@@H]1CN([C@H](C)CO)C(=O)c2cccc(NC(=O)Nc3cccc4ccccc34)c2O[C@@H]1CN(C)Cc1ccncc1	-5.2	-1.8	-3.4

Reprinted at random: four records from the list, in no set order.
SMILES	DUX4 txn inh	DUX4 txn inh difference	DUX4 txn inh control
O=C(C1CCCCC1)N1C[C@@H]2[C@H](c3ccccc31)[C@@H](CO)N2Cc1ccccc1Cl	-0.6	-1.8	1.2
C[C@@H]1CN([C@H](C)CO)C(=O)c2cccc(NC(=O)Nc3cccc4ccccc34)c2O[C@@H]1CN(C)Cc1ccncc1	-5.2	-1.8	-3.4
C/C=C/c1ccc([C@@H]2[C@H](CO)N3C(=O)CN(S(=O)(=O)c4ccccc4)C[C@@H]23)cc1	14.9	6.1	8.8
C/C=C/c1cnc2c(c1)C(=O)N([C@@H](C)CO)C[C@H](C)[C@@H](CN(C)C(=O)CCN1CCCCC1)O2	-2.8	-6.1	3.4

As entered above:
DUX4 txn inh difference, `O=C(C1CCCCC1)N1C[C@@H]2[C@H](c3ccccc31)[C@@H](CO)N2Cc1ccccc1Cl` is entered as -1.8
DUX4 txn inh, `CC=Cc1ccc2n(c1=O)C[C@@H]1[C@@H](CO)[C@H](C(=O)NCC(F)(F)F)[C@H]2N1C(=O)CC` (mixture of isomers) is entered as 5.3
DUX4 txn inh difference, `O=C(C[C@@H]1C=C[C@@H](NC(=O)C2CCOCC2)[C@H](CO)O1)Nc1ccc(-c2ccccc2)cc1` is entered as -5.3
DUX4 txn inh, `C[C@@H]1CN([C@H](C)CO)C(=O)c2cccc(NC(=O)Nc3cccc4ccccc34)c2O[C@@H]1CN(C)Cc1ccncc1` is entered as -5.2
DUX4 txn inh, `C/C=C/c1cnc2c(c1)C(=O)N([C@@H](C)CO)C[C@H](C)[C@@H](CN(C)C(=O)CCN1CCCCC1)O2` is entered as -2.8

Continued.
SMILES	DUX4 txn inh	DUX4 txn inh difference	DUX4 txn inh control
CN(C)CCCNC(=O)C[C@H]1CC[C@@H]2[C@H](COc3ccc(NS(C)(=O)=O)cc3C(=O)N2C)O1	-2.8	-3.0	0.2
Cc1ccc(S(=O)(=O)N[C@@H]2CC[C@H](CCNC(=O)C3CCOCC3)O[C@H]2CO)cc1	1.8	1.2	0.6
CS(=O)(=O)N1[C@@H]2c3ccc(-c4ccccc4F)c(=O)n3C[C@@H]2[C@@H](CO)[C@@H]1C(=O)NCC1CC1	1.7	-2.2	3.9
COc1ccc(S(=O)(=O)N(C)C[C@@H]2OCCCC[C@H](C)Oc3ccc(NC(=O)Cc4ccccc4)cc3C(=O)N([C@@H](C)CO)C[C@H]2C)cc1	4.6	3.3	1.3
C[C@@H]1CN([C@H](C)CO)C(=O)c2c(c3ccccc3n2C)-c2ccccc2CO[C@H]1CN(C)S(=O)(=O)c1ccsc1	?	/	/
COCC(=O)N1CCCCN2[C@H](C1)[C@H](c1ccc(C#Cc3ccccc3)cc1)[C@@H]2CO	?	/	/
C[C@@H]1CN([C@@H](C)CO)S(=O)(=O)c2ccc(C3=CCCC3)cc2O[C@@H]1CN(C)C(=O)c1ccccn1	1.9	2.1	-0.2
COc1ccc(NC(=O)Nc2ccc3c(c2)C(=O)N([C@H](C)CO)C[C@@H](C)[C@@H](CN(C)C(=O)c2ccccc2)OCCCC[C@H](C)O3)cc1	4.2	4.1	0.0
CC=Cc1ccc2n(c1=O)C[C@@H]1[C@@H](CO)[C@H](C(=O)NCCc3cn(C)cn3)N(C(=O)C3CCC3)[C@H]21 (mixture of isomers)	-2.8	-8.7	5.9
Cc1noc(C)c1NC(=O)N(C)C[C@@H]1OCCCC[C@@H](C)Oc2ccc(NS(=O)(=O)c3cn(C)cn3)cc2C(=O)N([C@H](C)CO)C[C@@H]1C	1.6	3.7	-2.2
CCCN(C)C[C@H]1OCc2cnnn2CCCC(=O)N([C@H](C)CO)C[C@@H]1C	?	/	/
COCC(=O)Nc1ccc2c(c1)[C@H]1C[C@@H](CC(=O)NCc3ccc4c(c3)OCO4)O[C@@H](CO)[C@H]1O2	1.3	-4.9	6.2
COc1ccc(CN(C)C[C@H]2Oc3ccc(NC(=O)Nc4c(C)noc4C)cc3C(=O)N([C@@H](C)CO)C[C@@H]2C)cc1	2.9	0.7	2.2
COc1ccc2c3c(n(C)c2c1)[C@H](CO)N(C(=O)Nc1ccc(F)cc1)CC31CCN(C(=O)CC2CC2)CC1	?	/	/
CCS(=O)(=O)Nc1ccc2c(c1)C(=O)N(C)[C@H]1CC[C@H](CC(=O)NCc3ccccc3F)O[C@@H]1CO2	3.4	0.6	2.8
COCC(=O)NC[C@H]1[C@H](c2ccccc2)[C@H](CO)N1C(C)=O	-3.0	-1.1	-1.9
COc1ccc2c3c([nH]c2c1)[C@H](CO)N(Cc1ccccc1F)CC31CN(C)C1	-6.0	-14.5	8.5
C[C@@H]1CN([C@@H](C)CO)C(=O)c2c(c3ccccc3n2C)-c2ccccc2CO[C@H]1CN(C)S(=O)(=O)c1ccc(C(F)(F)F)cc1	-8.2	-10.0	1.8
COC(=O)C[C@H]1CC[C@H]2[C@H](COc3ccc(NS(=O)(=O)c4ccccc4Cl)cc3C(=O)N2C)O1	0.7	0.2	0.5
CC(=O)N1[C@H](CO)[C@@H](c2ccccc2)C12CN(Cc1nccs1)C2	-0.1	-3.6	3.5
COc1ccc(CN2[C@H](CO)[C@@H]3c4ccccc4N(C(=O)CC(F)(F)F)C[C@@H]32)cc1	-0.9	-0.8	-0.1
O=C(CC1CC1)N1CC2(C1)[C@H](c1ccccc1)[C@H](CO)N2C(=O)c1ccccn1	12.3	11.2	1.1
COc1ccccc1C(=O)N1C[C@H]2[C@@H](c3ccccc31)[C@@H](CO)N2C(=O)Nc1ccccc1	-0.6	-1.1	0.5
COc1cccc(NC(=O)N[C@H]2CC[C@@H](CC(=O)NCc3ccccn3)O[C@H]2CO)c1	0.7	0.6	0.1
COCC(=O)N1CCCCN2[C@H](C1)[C@@H](c1ccc(-c3ccc(OC)cc3)cc1)[C@@H]2CO	8.0	-4.0	11.9
COc1cccc(C(=O)Nc2ccc3c(c2)C(=O)N(C)[C@@H]2CC[C@H](CC(=O)NCCCN4CCOCC4)O[C@@H]2CO3)c1	-4.2	-3.0	-1.3
O=C(NCC1CC1)[C@H]1[C@H](CO)[C@H]2Cn3c(ccc(-c4ccccc4F)c3=O)[C@@H]1N2Cc1cccnc1	0.4	-4.3	4.7
C[C@@H]1CN([C@H](C)CO)C(=O)c2cc(N(C)C)ccc2O[C@@H](C)CCCCO[C@@H]1CN(C)C(=O)C1CCCCC1	-2.4	-2.1	-0.3
COc1ccc2c3c([nH]c2c1)[C@H](CO)N(C(=O)C1CCCCC1)CC31CN(C(=O)NC(C)C)C1	10.4	10.2	0.2
CC(C)[C@H](C)NC(=O)N(C)C[C@@H]1OCc2ccccc2-c2ccccc2C(=O)N([C@@H](C)CO)C[C@@H]1C	8.9	2.8	6.0
COC(=O)c1ccc(CN2CC(=O)N3[C@H](CO)[C@H](c4ccc(-c5cccnc5)cc4)[C@@H]3C2)cc1	10.6	3.5	7.1
CCCN1C[C@@H](C)[C@H](OC)CN(C)C(=O)c2cc(NS(=O)(=O)c3ccccc3)ccc2OC[C@H]1C	?	/	/
CN1C(=O)c2cc(NC(=O)c3cccs3)ccc2OC[C@H]2O[C@H](CC(=O)NCC(F)(F)F)CC[C@@H]21	-3.4	-6.8	3.4
CO[C@@H]1CN(C)C(=O)c2ccc(NC(=O)NC(C)C)cc2OC[C@@H](C)N(C(=O)NC(C)C)C[C@H]1C	-3.0	-6.9	3.9
COc1ccccc1CN1C[C@@H]2N[C@H](C1)C2c1ccc(-c2cccc(C#N)c2)cc1 (stereo partly drawn)	?	/	/
O=C(N[C@H]1C=C[C@@H](CC(=O)N2CCOCC2)O[C@@H]1CO)c1ccccn1	0.2	0.9	-0.6
C[C@@H]1CN([C@@H](C)CO)C(=O)Cc2cc(NS(=O)(=O)c3ccc(F)cc3)ccc2O[C@H]1CN(C)Cc1ccncc1	0.6	-3.5	4.1
COc1cccc(S(=O)(=O)N2C[C@H](O)COC[C@@H]3O[C@@H](CC(=O)N4CCN(c5ccccc5)CC4)CC[C@H]32)c1	-8.6	-3.3	-5.3
COc1ccccc1-c1ccc([C@@H]2[C@@H](CO)N3CCCCN(Cc4ccncc4)C[C@@H]23)cc1	4.6	-4.7	9.3
COCC(=O)Nc1ccc2c(c1)C(=O)N(C)[C@H]1CC[C@H](CC(=O)NCCCN(C)C)O[C@H]1CO2	6.2	17.0	-10.8
COc1cccc(-c2cnc3c(c2)C(=O)N([C@H](C)CO)C[C@H](C)[C@H](CN(C)S(=O)(=O)c2cn(C)cn2)O3)c1	2.7	3.5	-0.7
CC[C@H]1C/C=C\C[C@H](c2ccc(F)cc2)NC(=O)CCC(=O)N1	0.8	-2.9	3.7
CCCC(=O)Nc1ccc2c(c1)C(=O)N(C)C[C@@H](OC)[C@H](C)CN(C(=O)CC1CC1)[C@H](C)CO2	3.1	-4.4	7.6
CO[C@@H]1CN(C)C(=O)c2ccc(NC(=O)Cc3ccccc3)cc2OC[C@H](C)N(CC2CC2)C[C@H]1C	-0.8	-0.3	-0.5
O=S(=O)(c1ccccc1)N1C[C@H]2[C@@H](c3ccccc31)[C@H](CO)N2Cc1ccccc1	2.3	6.1	-3.9
COc1ccccc1NC(=O)N1C[C@H](O)COC[C@H]2O[C@H](CC(=O)NCCc3ccncc3)CC[C@@H]21	7.8	10.0	-2.2
CC(C)c1cn(CC[C@H]2CC[C@H](NC(=O)c3cccc(F)c3)[C@H](CO)O2)nn1	5.2	3.2	2.0
COc1ccc(NC(=O)N2CCC3(CC2)CN(C(=O)C2CCC2)[C@H](CO)c2c3c3ccc(OC)cc3n2C)cc1	-4.6	-6.3	1.7
CC(C)NC(=O)NC[C@@H]1[C@H](c2ccccc2)[C@H](CO)N1C(=O)c1ccccc1	0.7	-0.8	1.5
O=C(Nc1ccc(F)cc1)N1C[C@H]2[C@@H](c3ccccc31)[C@@H](CO)N2C(=O)c1ccccc1F	6.5	7.1	-0.5
COc1ccc(C#Cc2ccc3c(c2)[C@@H]2[C@@H](CCN2S(=O)(=O)C2=NC(C)C=N2)[C@H](CO)N3C)cc1 (stereo partly drawn)	27.9	16.0	11.9
COC(=O)C[C@H]1CC[C@H]2[C@H](COc3ccc(NC(=O)Nc4cccc(C#N)c4)cc3C(=O)N2C)O1	1.7	-5.5	7.3
COCC#Cc1ccc([C@H]2[C@@H](CO)N3CCCCN(C(=O)NC4CCCC4)C[C@@H]23)cc1	6.8	11.9	-5.1
O=C(NCCN1CCCC1)[C@H]1[C@H](CO)[C@H]2Cn3c(cccc3=O)[C@H]2N1C(=O)c1ccccc1	-2.7	-5.0	2.3
CO[C@@H](CN(C)Cc1cc(F)ccc1F)[C@H](C)CN(C(=O)Nc1ccc(F)cc1)[C@@H](C)CO	0.6	-1.1	1.7
C[C@H](CO)N1C[C@H](C)[C@H](CN(C)C(=O)c2ccncc2)OCCCC[C@H](C)Oc2ccc(NC(=O)CCC(F)(F)F)cc2C1=O	0.0	-5.6	5.6
CN1C(=O)c2cc(NC(=O)c3cc(F)cc(F)c3)ccc2OC[C@H]2O[C@H](CC(=O)O)CC[C@H]21	-4.1	-2.4	-1.8
C/C=C/c1ccc([C@H]2[C@@H](CO)N(Cc3cncnc3)C23CN(C(C)=O)C3)cc1	0.6	-5.3	5.8

Screening results as filed in PubChem BioAssay.
